From PubChem BioAssay
GIRK2 activ: activators of human GIRK2 potassium channels; G protein-activated inward rectifier potassium channel 2 (Homo sapiens), P48051; HEK293-GIRK2 thallium flux, Thallos fluorescence; calls only for hits at 25 µM; 63,000 tested, 0.05% active; AID 1259325, 2017;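 active means among the strongest 0.2% of first-round signals and kept after retests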;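 further: first round at about 10 µM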
Target sequence (P48051 whole entry, looked up): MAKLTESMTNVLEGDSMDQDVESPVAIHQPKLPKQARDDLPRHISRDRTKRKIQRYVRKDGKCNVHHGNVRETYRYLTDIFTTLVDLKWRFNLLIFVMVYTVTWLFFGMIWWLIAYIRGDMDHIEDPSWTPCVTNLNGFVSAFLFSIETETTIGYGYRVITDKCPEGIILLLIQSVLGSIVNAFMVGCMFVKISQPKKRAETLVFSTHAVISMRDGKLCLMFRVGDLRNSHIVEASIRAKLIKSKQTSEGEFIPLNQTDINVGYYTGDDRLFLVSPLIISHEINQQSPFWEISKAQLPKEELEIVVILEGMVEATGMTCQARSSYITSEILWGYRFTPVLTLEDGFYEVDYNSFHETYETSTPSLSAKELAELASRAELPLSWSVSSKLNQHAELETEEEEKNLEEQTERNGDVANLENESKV
Calls only; i = inactive.

SMILES	GIRK2 activ
O=C(CCCc1ccccc1)N1CCN(c2ccc(-n3cccc3)nn2)CC1	i
O=c1oc2ccc(Br)cc2cc1S(=O)(=O)N1CCCC1	i
COC(=O)CCn1c(=O)c2c(nc3n(-c4cc(C)ccc4OC)c(C)cn23)n(C)c1=O	i
Cc1cc(NC(=O)c2ccc(-c3ccccc3)cc2)n(-c2nc3c(cnn3-c3ccccc3)c(=O)[nH]2)n1	i
O=S(=O)(NCC1(c2ccc(F)cc2)CC1)c1ccccc1Br	i
CCC(C(=O)NCC#CCN1CCCC1)c1ccccc1 (centres undefined)	i
O=C(c1ccc(Cn2ccnc2)cc1)N1CCC(COCc2ccccc2)CC1	i
O=C(N1CCn2c1nc1ccccc12)C1(c2ccccc2)CCOCC1	i
Cc1cc(C(=O)Nc2nc(C(=O)Nc3ccc4c(c3)OCCO4)co2)no1	i
CSc1ccccc1C(=O)NCCn1nc(C)cc1C	i
O=C(/C=C/c1ccccc1Cl)NCC1(CO)CC1	i
COc1nn(C)cc1C(=O)NCC1CCC(c2nc3ccccc3[nH]2)CC1 (centres undefined)	i
O=C(/C=C/c1ccc2c(c1)OCO2)N(Cc1ccsc1)C1CC1	i
O=C(CN1CCN(CC(O)c2ccco2)CC1)NCc1ccccc1 (centres undefined)	i
Cc1nc2c(c(=O)n1CC(=O)NCc1ccc(C(C)C)cc1)CN(Cc1ccccc1)CC2	i
COc1ccc(-n2c(=O)c3ccccc3n(Cc3cccc([N+](=O)[O-])c3)c2=O)c(OC)c1	i
Cc1cc(NC(=O)Cc2ccc(F)cc2)n(-c2nc3ccccc3s2)n1	i
O=C(c1cc2n(n1)CCCO2)N1CCN(c2ccccc2F)CC1	i
O=C(COc1ccccc1Cl)N1CCN(c2ccc(-n3ccnc3)nn2)CC1	i
O=C(NCCCN1CCN(c2ccccc2)CC1)C1CCCCC1	i
COc1ccc(CCNS(=O)(=O)c2c(N)n(C)c(=O)n(C)c2=O)cc1OC	i
CCC(C)NC(=O)CSc1nc2cc(OC)c(OC)cc2c2nc(C)nn12 (centres undefined)	i
O=C(Cc1cccs1)NCCc1nc(C2CC2)cc(C(F)(F)F)n1	i
COc1cc2nc3sc(Nc4ccc(C)c(C)c4)nn3c(=O)c2cc1OC	i
COc1ccc(-c2cn3c(n2)-c2ccccc2C3)cc1OC	i
O=C(Nc1ccc(-n2nnc(C(=O)N3CCCC3)n2)cc1)c1ccco1	i
O=C(CSc1ccc(F)cc1)Nc1ccc(CC(=O)N2CCOCC2)cc1	i
CC(C)N1CCc2c(sc(NC(=O)c3ccc([N+](=O)[O-])cc3)c2-c2nc3ccccc3s2)C1	i
O=S(=O)(c1ccccc1F)N1CCC(c2ccccc2)C1 (centres undefined)	i
Cc1ccccc1Cn1nc2c(S(=O)(=O)N3CCCCC3)cccn2c1=O	i
COc1ccccc1/C=C/c1nc(C#N)c(N2CCN(C(=O)c3cccc(Cl)c3)CC2)o1	i
COc1ccc(-c2cc3c4nn(CC(=O)Nc5ccc(F)cc5)c(=O)n4ccn3n2)cc1	i
CCOc1ccc2nc(N(CCN3CCOCC3)C(=O)c3ccccc3S(C)(=O)=O)sc2c1	i
Cc1ccc(NC(=O)Cn2c(=O)n(CCCCC(=O)NC(C)C)c(=O)c3ccccc32)cc1C	i
CCN1CCC2(CC1)Oc1ccc(Cl)cc1C1CC(c3ccccc3O)=NN12 (centres undefined)	i
COCCCNS(=O)(=O)CCNC(=O)c1ccc(OC)cc1	i
COc1cccc(NC(=O)c2c[nH]c3ccccc3c2=O)c1	i
Cc1cc(C)n(CC(=O)NCc2ccc(OCc3ccccc3)cc2)n1	i
Cc1nc(SCc2ccc(F)cc2)[nH]c(=O)c1CC(=O)N1CCC(C(N)=O)CC1	i
O=C(c1ccc(C(F)(F)F)cc1)N1CCN(Cc2nc3ccccc3[nH]2)CC1	i
CCOC(=O)c1ccccc1NC(=O)Cn1ccn2nc(-c3ccc(OCC)cc3)cc2c1=O	i
COc1ccc(C(=O)/C=C/c2ccc(OC)c(OC)c2)c(OC)c1	i
COC(=O)c1ccc2c(=O)n(CCC(=O)N3CCN(c4cc(C)ccc4C)CC3)c(=S)[nH]c2c1	i
COc1ccc2c(CN3CCN(Cc4ccc5c(c4)OCO5)CC3)cc(=O)oc2c1	i
COc1cccc(NC(=O)NCCOc2cc(C)cc(C)c2)c1OC	i
O=C(CN1CCN(Cc2nc(-c3cccs3)cs2)CC1)Nc1nc2ccccc2s1	i
CCOC(=O)c1cnn2ccc(NC(=O)Cc3ccc(F)cc3)cc12	i
C=C1CC(O)[C@H](/C=C/C(O)C(C)(C)CCCC)C1C/C=C\CCCC(=O)O (some centres undefined)	i
COc1ccc(S(=O)(=O)Nc2cc3c4c(c2)CCC(=O)N4CCC3)cc1	i
COc1cccc2sc(OC3CN(S(=O)(=O)C4CC4)C3)nc12	i
O=C(NCCOc1ccc(-c2ccc(F)cc2)nn1)c1ccc(I)cc1	i
Cc1nnc(SCC(=O)Nc2ccc(F)cc2)c2c1cnn2-c1ccc(F)cc1	i
Cc1ccc(S(=O)(=O)N(C)CCCCCC(N)=O)cc1	i
COC(=O)c1sc(S(=O)(=O)N2CCC(C)CC2)c(C(=O)OC)c1C	i
COCCCn1c(C(=O)OC)cc2c(=O)n(C)c(=O)n(C)c21	i
O=C(CNC(=O)c1ccccc1)Nc1cnc(N2CCOCC2)nc1	i
CN1CCc2c(sc(NC(=O)c3sc4ccccc4c3Cl)c2-c2nc3ccccc3s2)C1	i
Cc1ccc(-n2nnc(C(=O)NCc3ccco3)c2-c2ccncc2)cc1C	i
CCOc1ccccc1C(=O)NC1CCN(C(=O)c2cc(-c3ccc(C)cc3C)n[nH]2)CC1	i
COc1ccccc1NC(=O)c1ccc(-c2ccc(Cl)c(C(F)(F)F)c2)o1	i

Next section.
SMILES	GIRK2 activ
CC(=O)CC1(O)C(=O)N(CCCOc2ccccc2C)c2c(C)cccc21 (centres undefined)	i
CC1(C)CC(=O)C(C2OC(=O)c3ccccc32)=C(O)C1 (centres undefined)	i
O=S(=O)(NCCCN1CCN(c2ccccc2)CC1)c1cc(F)ccc1F	i
COc1ccccc1CCNC(=O)Cc1csc(Nc2ncccn2)n1	i
CC(O)(CCc1ccccc1)CNC(=O)c1cc(Br)ccc1Cl (centres undefined)	i
CC(=O)OC1CC2(C)C3CC=C4C(CC(OC5OC(CO)C(O)C(O)C5O)C(O)C4(C)C)C3(C)CCC2(C)C1C(C)(O)C(=O)CCC(C)(C)O (centres undefined)	i
COc1ccc(CNC(=O)C(=O)NCC(C)O)cc1 (centres undefined)	i
Cc1cc(S(=O)(=O)N2CCCCCC2)ccc1F	i
O=C(COc1ccc(-n2cccn2)nn1)NCc1ccc(F)cc1	i
CCS(=O)(=O)c1cccc(C(=O)N(CCN2CCOCC2)c2nc3ccc(OC)cc3s2)c1	i
O=C(CC1=C/C(=C\c2ccccc2)c2ccc(F)cc21)NCc1ccccc1	i
CCc1ccc(-n2nnc(C(=O)NC3CCCCCC3)c2-c2ccncc2)cc1	i
Cc1ccc(C)c(NC(=O)Cn2nc(-c3ccccc3)c3sc(N4CCCCC4)nc3c2=O)c1	i
CC(C)NC(=O)CSc1nc2ccccc2c(=O)n1Cc1ccc(C(=O)NC2CCCC2)cc1	i
CC(C)(C)OC(=O)NC1CCN(c2ncc(S(=O)(=O)c3ccccc3)c(N)n2)CC1	i
Cc1ccc(NC(=O)C(=O)NCC(c2cn(C)c3ccccc23)N(C)C)cc1F (centres undefined)	i
COc1ccc(CCNC(=O)NCC(O)c2sccc2C)cc1 (centres undefined)	i
Cc1nc2ccccc2n1S(=O)(=O)N1CCOCC1	i
COc1ccc(-c2nn3ccnc(N4CCN(Cc5ccc6c(c5)OCO6)CC4)c3c2C=O)cc1	i
COc1ccc(S(=O)(=O)N2CCN(c3cc(-n4cccc4)nc(C)n3)CC2)cc1C	i
Cc1c(C)n2c3c(=O)n(C)c(=O)n(C)c3nc2n1CCNc1cccc(Cl)c1	i
COc1ccc(-c2c(C)oc3cc(OCC(=O)O)ccc3c2=O)cc1OC	i
NC(=O)CSc1cnn(CC(=O)Nc2ccc(F)cc2F)c(=O)c1Cl	i
Cc1cccc(-c2csc3c(=O)[nH]c(N4CCC(C(=O)NCc5ccc(Cl)cc5)CC4)nc23)c1	i
CCOC(=O)c1cnn2ccc(NC(=O)c3cc4ccccc4oc3=O)cc12	i
COC(=O)C1CSc2c(sc(=O)n2-c2ccccc2)C1c1ccc(OC)cc1 (centres undefined)	i
Cc1noc(C)c1S(=O)(=O)N1CCC(CSCc2ccco2)CC1	i
COc1ccc(N2CCCS2(=O)=O)cc1NC(=O)C1CCCC1	i
COc1ccc(CNC(=O)NCC(O)(c2ccccc2)C2CC2)cc1 (centres undefined)	i
Cc1nc(-c2cccs2)sc1CNC(=O)CCSc1ccccc1	i
Cc1cc(C)cc(N2N=NC3C(=O)N(c4ccc(C)c(Cl)c4)C(=O)C32)c1 (centres undefined)	i
CCOC(=O)Cn1nc2c(-c3nc(-c4ccc(Cl)cc4)no3)cccn2c1=O	i
O=C(NCc1ccccc1Cl)C(=O)NCC1COC2(CCCC2)O1 (centres undefined)	i
COc1ccccc1OCC(=O)Nc1cc(C)ns1	i
COc1nn(C)cc1C(=O)Nc1nc2c(C)ccc(Cl)c2s1	i
O=C(CN1CC(c2nc(-c3ncccn3)no2)C1)Nc1ccc(C(F)(F)F)cc1	i
C#CCSc1nc2sc(C(C)=O)c(C)c2c(=O)[nH]1	i
O=C(NCC1CCN(C(=O)/C=C/c2ccco2)CC1)C(=O)Nc1cccc(N2CCCC2=O)c1	i
CC(C)S(=O)(=O)c1ccc(CC(=O)N(CCc2cccs2)Cc2ccco2)cc1	i
Cc1occc1-c1nc2s/c(=C\c3cn(-c4ccccc4)nc3-c3ccc(Cl)cc3)c(=O)n2n1	i
COc1ccccc1Cn1c(=O)c2sccc2n(Cc2c(C)noc2C)c1=O	i
Cc1cc(C)n(-c2ccc(=O)n(CCNC(=O)CCn3ccc(=O)[nH]c3=O)n2)n1	i
O=C(Cc1cccs1)N1C2CCC1CC(S(=O)(=O)c1ccccc1)C2 (centres undefined)	i
Cc1cc(F)ccc1S(=O)(=O)NCC(C)(O)c1ccco1 (centres undefined)	i
COc1cccc2sc(OC3CN(C(=O)Cn4c(=O)oc5ccccc54)C3)nc12	i
O=C(Nc1ccccc1C(F)(F)F)N1CC(c2nc(-c3ccc[nH]c3=O)no2)C1	i
COCCCn1cnc2c(-c3ccccc3)cn(CC(=O)Nc3ccc(OC)c(OC)c3)c2c1=O	i
Cc1ccc(S(=O)(=O)Nc2ccccc2C)cc1	i
Cc1ccc(S(=O)(=O)N2CCC(C(=O)Nc3sccc3C(N)=O)CC2)cc1	i
CCOC(=O)c1cc(CC)sc1N1C(=O)CC(Sc2ccccc2C(=O)OC)C1=O (centres undefined)	i
CCCc1nnsc1C(=O)Nc1cccc2ccc(-n3cccc3)nc12	i
CCS(=O)(=O)N(Cc1cccs1)Cc1cccn1C	i
Cc1ccccc1NC(=O)N1CCC(CSCc2ccco2)CC1	i
O=S(=O)(Cc1cccc(F)c1)N1CCN(Cc2ccsc2)CC1	i
O=C(Cn1ccc2ccccc21)N1CCC(Oc2ccc(C(F)(F)F)cn2)CC1	i
Cc1nc(-c2ccccn2)cc2nn(CC(=O)Nc3ccc(F)c(Cl)c3)c(=O)n12	i
COc1ccc(C)cc1Nc1nc(C(=O)Nc2nccs2)cs1	i
COc1nn(C)cc1C(=O)Nc1ccc(C(=O)NCC2CCCO2)cc1 (centres undefined)	i
O=S(=O)(c1cccc2ccccc12)N1CCC(c2ccccc2)C1 (centres undefined)	i
O=C(NCCc1nc2c(c(C(F)(F)F)n1)CCCC2)c1ccccc1	i

More compounds:
SMILES	GIRK2 activ
Cc1ccc(Cn2c(SCC(=O)Nc3ccccc3)nc3c2c(=O)[nH]c(=O)n3C)cc1	i
COc1ccccc1C(=O)Nc1ccc(Cn2cnc(C(=O)Nc3ccccc3)c2)cc1	i
O=C(Cc1cccs1)NCC1(O)CCc2ccccc2C1 (centres undefined)	i
N#Cc1cccc(CN2C(=O)N(Cc3ccccc3)S(=O)(=O)c3ccccc32)c1	i
O=C1CCSCC(C(=O)NCCn2nc(-c3ccco3)ccc2=O)N1 (centres undefined)	i
Cc1cc(C)n(-c2nc(CCNS(=O)(=O)c3c(F)cccc3F)cs2)n1	i
CCOc1ccc(-c2cc3c(=O)n(CC(=O)Nc4ccccc4F)ncn3n2)cc1	i
COc1ccccc1C(=O)NCCn1ncccc1=O	i
COc1ccccc1C(=O)N1CCC(Cn2ccnc2C(C)C)CC1	i

16 structures already listed, ordered by formula weight, ascending:
SMILES	GIRK2 activ
O=C(/C=C/c1ccccc1Cl)NCC1(CO)CC1	i
COc1ccccc1C(=O)NCCn1ncccc1=O	i
Cc1nc2ccccc2n1S(=O)(=O)N1CCOCC1	i
COc1ccc(CCNC(=O)NCC(O)c2sccc2C)cc1 (centres undefined)	i
CCOC(=O)c1cnn2ccc(NC(=O)Cc3ccc(F)cc3)cc12	i
Cc1cc(C(=O)Nc2nc(C(=O)Nc3ccc4c(c3)OCCO4)co2)no1	i
O=C(Cc1cccs1)N1C2CCC1CC(S(=O)(=O)c1ccccc1)C2 (centres undefined)	i
O=S(=O)(NCC1(c2ccc(F)cc2)CC1)c1ccccc1Br	i
O=C(c1ccc(C(F)(F)F)cc1)N1CCN(Cc2nc3ccccc3[nH]2)CC1	i
O=C(COc1ccccc1Cl)N1CCN(c2ccc(-n3ccnc3)nn2)CC1	i
COc1ccc2c(CN3CCN(Cc4ccc5c(c4)OCO5)CC3)cc(=O)oc2c1	i
Cc1nnc(SCC(=O)Nc2ccc(F)cc2)c2c1cnn2-c1ccc(F)cc1	i
Cc1ccc(C)c(NC(=O)Cn2nc(-c3ccccc3)c3sc(N4CCCCC4)nc3c2=O)c1	i
CC(C)N1CCc2c(sc(NC(=O)c3ccc([N+](=O)[O-])cc3)c2-c2nc3ccccc3s2)C1	i
Cc1occc1-c1nc2s/c(=C\c3cn(-c4ccccc4)nc3-c3ccc(Cl)cc3)c(=O)n2n1	i
CCS(=O)(=O)c1cccc(C(=O)N(CCN2CCOCC2)c2nc3ccc(OC)cc3s2)c1	i

The list is partial; count on the stated rates, not on these rows.
